High-throughput results deposited in PubChem by several laboratories.
INS promoter inh = TRM-6 insulin promoter activity inhibition; TRM-6 cells (human fetal islet line), insulin promoter-eGFP reporter, imaging; reporter expression induced with tamoxifen; AID 1273; 130,000 compounds, 0.9% hits; inhibition, % at 2 µM;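 active = inhibition above the mean plus 3 SD, with well images judged a real hit on visual review, cut at about 60% in these data, passing the limit was not always enough; inconclusive = inhibition over the cutoff but images rejected on review; inactive = inhibition not above the cutoff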
RGS16-Gao = modulates binding between human RGS16 and Galphao; O15492+P09471; bead-based flow cytometry RGS16-Galphao binding, fluorescence; actives lie on both sides; binding response (% of control), % at 10 µM; 220,000 compounds, 0.38% hits; AID 1441;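 active = below 25% or above 175%, edge rows of some plates excepted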;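 note: Galphao activated by GDP with aluminum fluoride before binding; 100% = wells without compound and 0% = beads without RGS; some results beyond the cut were filed as inactive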
Target sequence (O15492 whole entry, looked up): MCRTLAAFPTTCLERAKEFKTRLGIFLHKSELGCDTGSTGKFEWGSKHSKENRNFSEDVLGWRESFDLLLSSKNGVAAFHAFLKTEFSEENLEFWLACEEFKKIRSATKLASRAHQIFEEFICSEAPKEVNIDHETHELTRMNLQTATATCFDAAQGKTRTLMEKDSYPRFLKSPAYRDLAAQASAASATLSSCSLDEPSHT
Target sequence (P09471 whole entry, looked up): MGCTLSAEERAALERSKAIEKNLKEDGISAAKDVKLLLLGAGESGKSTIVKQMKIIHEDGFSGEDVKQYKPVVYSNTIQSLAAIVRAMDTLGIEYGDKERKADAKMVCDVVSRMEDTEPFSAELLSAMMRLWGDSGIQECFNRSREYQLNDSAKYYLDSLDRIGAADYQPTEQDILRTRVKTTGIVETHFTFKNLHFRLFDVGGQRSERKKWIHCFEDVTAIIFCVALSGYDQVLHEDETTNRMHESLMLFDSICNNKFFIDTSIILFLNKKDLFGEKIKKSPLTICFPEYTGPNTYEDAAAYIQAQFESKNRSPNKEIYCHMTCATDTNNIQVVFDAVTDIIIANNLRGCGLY
PKD1 inh = blocks activity of human protein kinase D1; 200,000 compounds, 0.056% hits; inhibition, %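 (about 10 µM by stock and volumes)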; PKD1 kinase fluorescence polarization assay; Q15139;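 active = inhibition of 50% or more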;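 note: controls were vehicle for no effect and a reference inhibitor for full effect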
HSV replic up = increases HSV replication in cells; maximum fold increase; 220,000 compounds, 0.005% hits; HSV replication augmentation in cells, fold increase;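 active = peak rise of 1.5-fold or more in the series; inconclusive = self-fluorescent or not available for retest; tested in PC3 cells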;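 note: first round at 10 µM; read as green reporter fluorescence; hits show the peak of a series up to 25 µM; 1 = signal of infected wells without compound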
GALR2 agonist = GALR2 (human) receptor agonism; GALR2-expressing cells, agonist activation read-out; 140,000 compounds, 0.48% hits; activation, %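 (tested at 5 µM)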;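 active = above mean plus 3 SD of all compounds, about 5% in these data, not always enough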;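 note: 0% = vehicle buffer wells and 100% = reference agonist at full effect; tested in CHO reporter cells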
Target sequence (O43603 whole entry, looked up): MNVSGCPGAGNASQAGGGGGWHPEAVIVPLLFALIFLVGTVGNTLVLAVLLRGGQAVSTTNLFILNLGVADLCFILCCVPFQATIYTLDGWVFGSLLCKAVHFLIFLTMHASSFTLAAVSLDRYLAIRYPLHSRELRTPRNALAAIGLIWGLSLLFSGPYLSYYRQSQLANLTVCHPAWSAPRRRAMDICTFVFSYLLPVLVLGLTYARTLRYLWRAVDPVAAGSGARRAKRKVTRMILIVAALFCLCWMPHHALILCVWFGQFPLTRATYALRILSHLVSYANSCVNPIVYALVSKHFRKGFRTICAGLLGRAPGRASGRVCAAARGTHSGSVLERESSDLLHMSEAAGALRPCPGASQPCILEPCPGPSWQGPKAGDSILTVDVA
INS promoter inh cell count = recorded beside INS promoter inh, whose call it bears; normalized cell count, %; measured here: cell count, toxicity; reference of the scale not given here;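 cells exposed to compound for 48 h; stained nuclei by imaging scaled within each plate; lower means fewer cells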
HSV replic up primary fold = second read-out of HSV replic up, no call of its own (marks repeat the call); fold increase; compound at 10 µM; measured here: primary screen fold increase 10 uM; tested in PC3 cells;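 GFP signal in the first replicate; 1 = infected wells without compound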
Numbers without * were called inactive; i = inactive; u = inconclusive; x = no result given.

SMILES | INS promoter inh | INS promoter inh cell count | RGS16-Gao | PKD1 inh | HSV replic up | HSV replic up primary fold | GALR2 agonist
Cc1occc1-c1nnc(SCC(=O)NCCc2ccccc2)n1Cc1ccccc1 | x | x | 111 | -2 | i | 0.93 | -1.4
OCCC1CN(Cc2ccc3c(c2)CCO3)CCN1Cc1ccc(F)cc1 (centres undefined) | x | x | 99 | 7 | i | 1.1 | x
O=C(NCCCN1CCCCCC1)c1ccc(CS(=O)(=O)Cc2ccccc2F)o1 | -35 | 184 | 86 | 27 | i | 0.94 | -1.4
O=C(NCC1CC1)c1ccc(Oc2cc(Cl)cc(Cl)c2)o1 | x | x | 113 | x | i | 1 | x
CCC(=O)Nc1ccc(S(=O)(=O)NCc2ccco2)cc1 | 40 | 138 | 102 | -6 | i | 0.79 | -1.4
CCOC(=O)N1CCN(c2c(NCc3ccc(Cl)cc3)c(=O)c2=O)CC1 | x | x | 100 | -11 | i | 0.54 | -1.3
CCOc1ccc(Br)cc1C(=O)N/N=C/c1ccc([N+](=O)[O-])cc1 | -56 | 91 | 106 | -1 | i | 0.75 | x
COc1ccc(C(Cl)=C(c2ccc(OC)cc2)c2ccc(OC)cc2)cc1 | 27 | 108 | 89 | -19 | i | 0.89 | -2.2
CS(=O)(=O)N1CCC(C(=O)NCCc2ccccc2)CC1 | 20 | 133 | 101 | -7 | i | 1.1 | 0.4
Cc1ccccc1Cn1ccc(NC(=O)c2nc3ncccn3n2)n1 | -112 | 108 | 101 | 1 | i | 0.89 | -2.1
CCC(=O)Nc1cccc(-c2cn3cccc(C)c3n2)c1 | x | x | 94 | x | i | 0.92 | x
Cn1c(N)c(N=O)c(=O)n(C)c1=O | x | x | 97 | x | i | 1.4 | x
CCc1ccc(NC(=O)COn2nnc3ccc(S(=O)(=O)N(C)C)cc32)cc1 | x | x | 97 | 1 | i | 0.92 | 0.8
CCOc1ccccc1Oc1cn[nH]c1-c1ccc(OC)cc1O | 17 | 60 | 101 | -13 | i | 0.77 | -1.4
N#Cc1cnn(-c2ccc(F)cc2)c1N | x | x | 98 | x | i | 1 | x
Cc1nn(CCN)c(C)c1Cl | x | x | 107 | -4 | i | 0.96 | x
CCOc1ccc(S(=O)(=O)N2CCN(S(=O)(=O)c3ccc(OCC)cc3)C(C)C2)cc1 (centres undefined) | -70 | 68 | 106 | -1 | i | 0.84 | -1.7
CCOC(=O)c1nn(-c2c(C)n(C)n(-c3ccccc3)c2=O)cc1O | x | x | 98 | 9 | i | 1.1 | -1.9
Cc1ccc(/C=N/N=C2\SCC(=O)N2CC2CC2)cc1 | x | x | 105 | x | i | 0.87 | x
COc1cccc2cc(/C(C)=N/NC(=O)c3ccco3)oc12 | 7 | 87 | 100 | 6 | i | 0.81 | x
CC(C)n1cc(/C=C2/SC(=O)N(CC(=O)N3CCCC3)C2=O)c2ccccc21 | -39 | 87 | 98 | -11 | i | 0.9 | -1.7
O=C(O)CSc1c(-c2cccs2)[nH]c2ccccc12 | 6 | 135 | 102 | -2 | i | 1.1 | 0.3
COCn1c(=O)c2c(nc(SC3=NCCS3)n2Cc2ccccc2C)n(COC)c1=O | 20 | 99 | 106 | -1 | i | 0.84 | -1.6
COc1ccc(/C=C/C(=O)Nc2sc(Cc3ccccc3)c(C)c2C(N)=O)cc1 | 18 | 133 | 73 | -4 | i | 0.92 | -1.3
Cc1ccccc1-c1coc2cc(O)ccc2c1=O | 17 | 74 | 97 | -10 | i | 0.84 | -0.6
CC(=O)OCCN(Cc1ccccc1)Cc1ccc2c(c1)OCO2 | 3 | 125 | 86 | 0 | i | 0.91 | -1.2
O=C(N/N=C/C1C(c2ccccc2)C1(Cl)Cl)c1cccc(Br)c1 (centres undefined) | -54 | 105 | 97 | 1 | i | 0.97 | -1.5
O=C(O)CN(Cc1ccccc1)S(=O)(=O)c1ccc(F)cc1 | -20 | 162 | 103 | -1 | i | 0.89 | -3.6
Cc1cnc(C(=O)Nc2ccc(C(C)C)cc2)cn1 | -56 | 129 | 103 | -5 | i | 0.83 | x
Cc1ccc(C(=O)OCC(=O)Nc2ccccc2Sc2ccccc2)cc1C | 35 | 117 | 94 | -18 | i | 0.95 | -1.4
COCCCNC(=O)CCCn1c(=O)c2ccccc2n(CC(=O)Nc2c(C)cc(C)cc2C)c1=O | -106 | 70 | 74 | -8 | i | 1.1 | -0.8
Nc1nc(SCC(=O)NNc2c(Cl)cc(Cl)cc2Cl)n[nH]1 | -23 | 118 | 71 | -9 | i | 1 | -0.7
COc1ccc([N+](=O)[O-])cc1NC(=O)C(C)OC(=O)c1cccnc1Cl (centres undefined) | x | x | 106 | 3 | i | 1.1 | x
CCOC(=O)c1sc(NC(=O)C(C)C)c(C#N)c1C | 21 | 111 | 86 | 4 | i | 0.87 | x
O=C(N/N=C/c1cc([N+](=O)[O-])ccc1O)c1cc(-c2ccccc2)nc2ccccc12 | x | x | 34 | -1 | i | 1 | -0.8
CC1(C)NC(=O)N(CC(=O)O)C1=O | -63 | 99 | 102 | -7 | i | 0.77 | -2.2
O=C1CC(=O)N(CCc2ccc(F)cc2)C(=O)N1 | -29 | 65 | 100 | -2 | i | 1.1 | -1.2
CCn1cnc2cc([N+](=O)[O-])ccc21 | 20 | 133 | 98 | -1 | i | 0.8 | x
CCOc1ccc(C(=O)Nc2ccc(-c3nc4ccccc4[nH]3)cc2)cc1[N+](=O)[O-] | x | x | 101 | 5 | i | 0.93 | 1.6
Cc1c(C(=O)NC(C)C)oc2c1-c1[nH]ncc1CC2 | 0 | 141 | 100 | 0 | i | 0.95 | -2.1
CCOc1ccc(NC(=O)Nc2cc(C)ccc2F)cc1 | 7 | 164 | 100 | 3 | i | 0.84 | -1.7
Nc1nc(NC(=O)/C=C/c2ccc(F)cc2)nn1-c1ccccc1 | x | x | 104 | x | i | 0.64 | x
COC(=O)COc1ccc(C(=O)OC)cc1 | 39 | 110 | 96 | -11 | i | 0.89 | 0.3
CC(c1ccco1)N(C(=O)C12CC3CC(CC(C)(C3)C1)C2)c1ccccn1 (centres undefined) | 29 | 64 | 101 | -2 | i | 0.92 | -1.6
COc1cc(/C=N/NC(=O)c2cc(C)oc2C)cc(OC)c1OC | x | x | 106 | -4 | i | 1 | x
Cc1ccc(COc2ccsc2C(=O)O)cc1 | 27 | 76 | 99 | -1 | i | 0.99 | x
CCOC(=O)c1[nH]c2ccc(OCC)cc2c1NC(=O)CN1CCC2(CC1)OCCO2 | x | x | 101 | 11 | i | 0.84 | -0.6
Cc1cc(Cl)ccc1NC(=O)CSc1nnc(-c2ccncc2)n1Cc1ccco1 | -54 | 44 | 101 | -4 | i | 0.92 | -1.2
C=CCc1cccc2ccc(=O)oc12 | -27 | 124 | 104 | -3 | i | 0.97 | -0.6
COc1cc(/C=N/NC(=O)CSc2ccccn2)ccc1O | x | x | 101 | x | i | 0.94 | x
O=C(COC(=O)c1ccccn1)Nc1nccs1 | 6 | 205 | 57 | -7 | i | 0.88 | -0.7
O=c1cc(O)c2c(=O)[nH]c(=O)n(-c3ccccc3)c2[nH]1 | x | x | 99 | 1 | i | 0.88 | -4.2
COc1ccc(OCC(O)COc2ccc(C(=O)O)cc2)cc1 (centres undefined) | 30 | 119 | 98 | 0 | i | 1.1 | -0.9
CN1CCN(NC(=O)c2ccc(Br)s2)CC1 | x | x | 92 | x | i | 0.91 | x
O=C(Nc1nc2n(n1)C(c1ccccc1)CC(c1ccc(Cl)cc1)N2)c1ccco1 (centres undefined) | -9 | 109 | 93 | 12 | i | 0.91 | 0.8
COc1ccc(C(=O)Nc2ccc(OCC(F)(F)C(F)F)c(C(F)(F)F)c2)cc1OC | -38 | 96 | 100 | 0 | i | 0.75 | -1.9
CC(=O)N(Cc1ccco1)Cc1cc2cccc(C)c2n2nnnc12 | x | x | 100 | 5 | i | 1 | x
CCOC(=O)C1=NN(C(=O)Cc2ccccc2)C(O)(c2ccc(Cl)cc2)C1 (centres undefined) | 17 | 161 | 109 | -2 | x | x | -1.2
O=C(CN(Cc1ccco1)C(=O)CCC(=O)Nc1nccs1)NCc1ccccc1 | 44 | 152 | 104 | -2 | i | 0.89 | -1.6
CCC(=O)Nc1ccc(Cl)c(NC(=O)c2c(OC)cccc2OC)c1 | x | x | 100 | -4 | i | 1.1 | x
Other compounds follow.
SMILES | INS promoter inh | INS promoter inh cell count | RGS16-Gao | PKD1 inh | HSV replic up | HSV replic up primary fold | GALR2 agonist
COc1cccc(/C=N/NC(=O)CNC(=O)c2ccc3c(c2)OCCO3)c1O | x | x | 94 | 3 | i | 0.83 | -2.0
COc1cc(/C=C2\SC(=S)N(C(C(=O)O)c3ccccc3)C2=O)ccc1O (centres undefined) | x | x | 97 | x | u | x | x
Cc1ccc(NC(=O)COC(=O)CC2CCCC2)cc1Cl | -64 | 101 | 105 | 3 | i | 0.99 | x
COc1ccc(OCC(=O)N2CCN(C(=O)c3ccc([N+](=O)[O-])cc3)CC2)cc1 | x | x | 103 | 2 | i | 0.89 | x
C=CC(=O)NCC1OCCc2ccccc21 (centres undefined) | 42 | 96 | 105 | -3 | i | 0.95 | x
CN1C(=O)/C(=C/c2ccccc2OCc2ccccc2)NC1=S | -120 | 55 | 102 | -6 | i | 0.85 | 0.0
CCCCCC(=O)Nc1nc(C)c(-c2csc(Nc3ccccc3OCC)n2)s1 | -18 | 115 | 96 | 0 | i | 1.1 | 0.4
Cc1cccc(CC(=O)NCCn2c(C)cc3ccccc32)c1 | -6 | 113 | 112 | -1 | i | 1.1 | x
c1ccc(N(c2ccccc2)c2nc(N3CCCC3)nc(-n3ccnc3)n2)cc1 | x | x | 110 | -10 | x | x | -0.8
Cc1ccc(/C=C/c2nc3ccccc3c(=O)n2CCc2ccccc2)cc1 | x | x | 104 | -4 | i | 1.1 | -1.8
CCN(CC)S(=O)(=O)c1ccc(NC(=O)CN(c2cccc(F)c2)S(C)(=O)=O)cc1 | 28 | 81 | 105 | 2 | i | 0.95 | -0.9
COc1cccc(NC(=O)NCCCN2CCN(c3ccc(F)cc3)CC2)c1 | 0 | 119 | 107 | -6 | i | 0.89 | -0.9
O=C(CSc1nnnn1-c1ccccc1)N1CCN(C(=O)c2ccco2)CC1 | x | x | 100 | -9 | i | 1 | 0.3
Cc1ccc(-c2[nH]c(=O)n3ccncc23)s1 | 0 | 83 | 78 | 8 | i | 0.81 | -1.2
COc1ccc(/C(C)=N/OCC(=O)N2CC3(C)CC2CC(C)(C)C3)cc1 (centres undefined) | -36 | 104 | -45 | 8 | i | 1.1 | 0.0
O=C(COc1cccnc1[N+](=O)[O-])NCc1ccc2c(c1)OCO2 | x | x | 103 | x | i | 0.95 | x
O=C(c1ccccc1)c1c(O)nc(-c2ccccc2)n(-c2ccccc2)c1=O | -19 | 133 | 105 | -1 | i | 0.89 | -2.1
CC1=CC(c2ccccc2)n2nc(NC(=O)CCC(=O)O)nc2N1 (centres undefined) | x | x | 101 | x | i | 0.84 | x
COc1ccc(CCNc2oc(COc3ccc(F)cc3)nc2C#N)cc1 | -14 | 123 | 90 | -6 | i | 0.98 | -3.3
Cc1ccccc1CN1C(=O)C(O)(CC(=O)c2ccncc2)c2ccccc21 (centres undefined) | x | x | 98 | -10 | i | 1.2 | 0.8
CC(C)(C)c1nnc(NC(=O)CCn2cnc3ccccc3c2=O)s1 | x | x | 98 | -4 | i | 1.5 | x
CC(=O)Oc1ccccc1N1C(=O)c2ccc(C(=O)O)cc2C1=O | x | x | 33 | -4 | i | 1.1 | 0.4
Cc1ccc(-c2n[nH]c(=S)n2/N=C/c2cc3c(cc2[N+](=O)[O-])OCO3)cc1 | 18 | 133 | 92 | 1 | i | 0.8 | 0.0
COC(=O)C1=CN(C(C)C)C=C(C(=O)OC)C1c1cc2c(cc1Br)OCO2 | 10 | 115 | 97 | -10 | i | 0.81 | 1.5

Sorted by length of the SMILES (smallest number first): some entries from above.
SMILES | INS promoter inh | INS promoter inh cell count | RGS16-Gao | PKD1 inh | HSV replic up | HSV replic up primary fold | GALR2 agonist
CC(C)(C)c1nnc(NC(=O)CCn2cnc3ccccc3c2=O)s1 | x | x | 98 | -4 | i | 1.5 | x
O=C(c1ccccc1)c1c(O)nc(-c2ccccc2)n(-c2ccccc2)c1=O | -19 | 133 | 105 | -1 | i | 0.89 | -2.1
COC(=O)C1=CN(C(C)C)C=C(C(=O)OC)C1c1cc2c(cc1Br)OCO2 | 10 | 115 | 97 | -10 | i | 0.81 | 1.5
Cc1ccc(-c2n[nH]c(=S)n2/N=C/c2cc3c(cc2[N+](=O)[O-])OCO3)cc1 | 18 | 133 | 92 | 1 | i | 0.8 | 0.0
